hNpr1 antagonist = Natriuretic polypeptide receptor (hNpr1) antagonism - Primary qHTS; Potency, µM (doses to about 46.3 µM), for inactives: at the highest dose activity change, negative = inhibition, usual class: inhibitors; HEK293 hNpr1 GloSensor cGMP, ANP-stimulated luminescence; Atrial natriuretic peptide receptor 1 (Homo sapiens), P16066; actives 1.6% (n = 76,000); AID 1347048, 2019; active = well fitted inhibition curve with a large enough effect; inconclusive = small, poorly fitted or top-dose-only effect; inactive = no such curve, though single readings can be large or run the other way;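 also: nearly all actives have a fitted effect of over 60% in size; nearly all hits also lower the signal before the agonist is added; a reference antagonist and vehicle were the controls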
Target sequence (P16066 whole entry, looked up): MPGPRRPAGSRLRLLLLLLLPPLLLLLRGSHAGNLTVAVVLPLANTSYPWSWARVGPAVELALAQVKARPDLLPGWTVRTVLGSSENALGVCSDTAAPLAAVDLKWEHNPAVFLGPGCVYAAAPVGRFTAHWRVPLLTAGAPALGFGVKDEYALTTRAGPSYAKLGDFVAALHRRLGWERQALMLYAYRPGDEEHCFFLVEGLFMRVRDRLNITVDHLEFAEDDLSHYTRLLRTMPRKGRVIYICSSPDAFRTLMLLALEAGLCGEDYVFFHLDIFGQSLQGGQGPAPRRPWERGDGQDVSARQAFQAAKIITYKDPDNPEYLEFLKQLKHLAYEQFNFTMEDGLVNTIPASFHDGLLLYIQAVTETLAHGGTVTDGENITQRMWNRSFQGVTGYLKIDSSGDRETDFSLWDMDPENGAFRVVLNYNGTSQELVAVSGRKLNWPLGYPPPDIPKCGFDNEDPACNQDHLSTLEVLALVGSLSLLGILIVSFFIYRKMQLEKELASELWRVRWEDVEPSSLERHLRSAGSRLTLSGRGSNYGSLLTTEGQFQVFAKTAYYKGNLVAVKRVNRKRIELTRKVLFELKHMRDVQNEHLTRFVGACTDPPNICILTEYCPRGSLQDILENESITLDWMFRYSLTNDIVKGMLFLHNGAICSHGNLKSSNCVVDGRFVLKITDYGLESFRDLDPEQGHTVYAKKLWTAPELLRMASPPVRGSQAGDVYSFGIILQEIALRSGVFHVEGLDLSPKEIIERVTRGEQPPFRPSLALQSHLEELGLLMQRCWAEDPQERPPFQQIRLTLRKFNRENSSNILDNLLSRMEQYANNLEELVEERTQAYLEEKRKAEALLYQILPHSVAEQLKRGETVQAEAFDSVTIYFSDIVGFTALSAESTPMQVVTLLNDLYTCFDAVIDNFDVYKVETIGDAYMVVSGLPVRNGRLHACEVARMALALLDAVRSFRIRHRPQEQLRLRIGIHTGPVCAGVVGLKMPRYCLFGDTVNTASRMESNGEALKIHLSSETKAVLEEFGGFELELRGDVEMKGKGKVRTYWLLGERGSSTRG
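Compound pre-incubated 30 min at room temperature on GloSensor-loaded HEK293 cells stably carrying hNpr1 and the pGS-40F cGMP biosensor. Stimulation uses hNppA at 0.1 nM final; luminescence is taken at baseline and 20 min post-agonist.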
Active calls of the source: *; ? = inconclusive; [ ] = another dose, or the depositor's remark. % is scaled to controls: 0 for no effect and ±100 for the full control effect; potency is read from the fitted curve at half-maximal effect. An excerpt. The share of hits here may be higher or lower than overall.

molecule	hNpr1 antagonist
COc1ccc(-c2noc(-c3cccn3CC(=O)Nc3cccc(Cl)c3)n2)cc1F	-12.5%
Cc1cc(C)c(CNC(=O)c2cc(-c3ccnn3C)cc3c2OCCN3C(C)C)c(=O)[nH]1	-0.1%[70.6 µM]
O=C(c1ccc2c(c1)ncn2CCO)N1CCCn2nc(CO)cc2C1	3.5%
CN(C)C[C@@H]1CN(c2ncccn2)C[C@H]1NC(=O)c1c(F)cccc1F	6.3%
O=C(Nc1cccc(-c2nnc3n2CCCC3)c1)c1ccn[nH]1	-2.1%
CCOC(=O)CNC(=O)c1ccc2c(c1)N(S(C)(=O)=O)CC2	-0.9%
CC(C)c1nncn1C1CCN(S(=O)(=O)c2cccs2)CC1	-0.8%
O=C(CCc1ccccc1)NCCc1noc(C2CC2)n1	6.8%
COc1ccc(CN2CCN3C(=O)N(Cc4ccccc4)C[C@H]3C2)cc1	?
Cc1nc(-c2cn(C3CCCN(C(=O)c4cccs4)C3)nn2)no1 (stereo unspecified)	-1.8%
Cc1ccc(NC(=O)Nc2ccccc2)c(=O)n1CC(=O)NC1CCCCC1	-0.3%
O=C(Cc1ccccc1F)Nc1ccc2c(N3CCCCC3)ncnc2c1	?
Cc1ccc(NC(=O)N2C[C@@H](F)C[C@H]2C(=O)N2CCCCC2)cc1	0.1%
O=C(c1cccs1)N1CCCC(CN2CCCC2)CC1 (stereo unspecified)	2.7%
O=S(=O)(N[C@H]1CO[C@H]2[C@@H]1OC[C@H]2O)c1ccc(Cl)cc1	-1.5%[70.6 µM]
COCCNC(=O)C[C@@H]1O[C@H](CNC(=O)Nc2cccc(F)c2)[C@@H](O)[C@H]1O	8.9%[70.6 µM]
COC(=O)c1ccc(CNC(=O)CN2CCN(c3nccnc3C#N)CC2)o1	2.8%
Cc1ccc(NC(=O)CCc2ccnc(N3CCCC3)c2)c(C)c1	-6.8%
COC[C@@H]1[C@H](C(=O)Nc2ccc(C)cc2)CCC(=O)N1C	2.1%
O=C([C@@H]1C[C@H](Oc2ccccc2)CN1C(=O)c1ccccn1)N1CCOCC1	-0.8%
COc1ccc(-c2noc([C@@H]3C[C@@H](O)CN3Cc3ccc(CO)o3)n2)cc1	?
C[C@H](O)c1onc(-c2ccccc2)c1C(=O)NC1CCOCC1	1.5%[70.6 µM]
COc1cccc(CNC(=O)Cn2c(C)cc3nc4n(c(=O)c32)CCCCC4)c1OC	-3.0%
CNC(=O)N1CCC(C2CCN(C(=O)COc3cccc(C)c3)C2)CC1 (stereo unspecified)	5.9%
CN1CCC2(CC1)CN(C(=O)Cc1cccs1)Cc1ccccc1O2	-13.7%
CCCCc1nc(C)cc(NCCNC(=O)C2CC3(CCNCC3)CN2)n1 (stereo unspecified)	1.6%
CS(=O)(=O)N(C1CC1)C1CCOC2(CCN(C(=O)c3ccc(F)cc3)CC2)C1 (stereo unspecified)	3.9%
Cc1cccc(OCCc2noc(C3CCN(C(=O)CN4CCCCCC4)C3)n2)c1 (stereo unspecified)	0.9%
O=C(Cc1c(F)cccc1Cl)N1CCc2n[nH]c(=O)n2CC1	-12.7%
CS(=O)(=O)N(C1CCOCC1)C1CCN(C(=O)c2ccc(Cl)cc2)CC1	2.1%
O=C(O)C[C@@H]1CCN(C(=O)c2ccc(C(F)(F)F)cc2)C[C@@H]1CCN1CCN(c2ccccn2)CC1	-2.4%
N[C@H]1CN(C(=O)c2ccc(Cn3cnnn3)cc2)C[C@@H]1C1CC1	-2.5%
CN(C)C(=O)CC1CCCCN(Cc2ccccc2)C1=O (stereo unspecified)	1.5%
O=C(NCc1ccc(Cl)nc1)c1cccn2cncc12	15.5%[70.6 µM]
O=C(Cc1c[nH]c2ccccc12)N[C@H](Cc1ccccn1)C1CC(O)C1 (stereo partly specified)	-0.3%
Cc1noc(-c2cn(C3CCN(C(=O)c4cc(F)ccc4F)C3)nn2)n1 (stereo unspecified)	2.6%
Cc1ccc(NC(=O)N2C[C@@H](F)C[C@H]2C(=O)N2CCc3ccccc3C2)cc1Cl	-13.0%
CC(C)CCNC(=O)C1(CCO)CCN(c2ncccn2)C1 (stereo unspecified)	-1.6%
CCCS(=O)(=O)N1C[C@@H](Oc2ccccc2)C[C@@H]1C(=O)NC	3.2%
c1cncc(C2=NOC3(CCN(CC4CCCCC4)CC3)C2)c1	-22.1%[70.6 µM]
N#Cc1ccc(C(=O)N2CC[C@H]3C(=O)NCCCCCCN(Cc4ccncc4)[C@@H]3C2)cc1	-2.4%
CCc1ccc(C(=O)N2CCC(N3C(=O)CCC3C(=O)NCc3ccccc3)CC2)cc1 (stereo unspecified)	3.1%
CC(C)CC(=O)NC1CCN(c2cnn(CC3CC3)c(=O)c2)CC1	5.7%
CC(=O)N1CCC(N[C@H]2C[C@@H](Cc3cc(CN(C)c4ccccc4)on3)C2(C)C)CC1	-20.6%[70.6 µM]
O=C(Nc1ccc(F)c(Cl)c1)N1CCC2(CC1)SCC(=O)N2Cc1ccco1	-5.4%
COCc1cc(NCc2cccnc2N(C)Cc2ccccc2)ncn1	-13.2%
CC(=O)N1CCC(C2CCN(S(=O)(=O)c3ccc(Cl)cc3C)C2)CC1 (stereo unspecified)	-26.3%
Cc1ccc(-c2nnc([C@H]3CCN(Cc4cccc(C#N)c4)C3)o2)cc1	-8.1%[70.6 µM]
O=C(COc1ccccc1)N[C@H]1CO[C@H]2[C@@H]1OC[C@@H]2Nc1nccc(-c2cccc(F)c2)n1	-0.9%
c1cnc2[nH]cc(-c3nc4ccncc4[nH]3)c2c1	0.0%[70.6 µM]
Cc1cnc(CC2CC(=O)N(c3ccccc3)C2)nc1N(C)C (stereo unspecified)	-1.6%
CC(C)(C)NC(=O)Cn1ccn2nc(-c3ccccc3)c(CO)c2c1=O	4.7%
O=C(c1cc(Cl)ccc1F)N1CCCC(n2cc(-c3nc(-c4ccccc4)no3)nn2)C1 (stereo unspecified)	15.8µM*
CCN1c2cc(C(=O)NCc3cc(F)ccc3F)ccc2C(=O)N2CCCCCC21 (stereo unspecified)	-12.7%
O=C(c1ccc(F)c(Cl)c1)N1CCC(n2cc(-c3nc(-c4ccccc4)no3)nn2)CC1	12.6µM*
COc1ccc(-c2nccn3cc(C(=O)NCc4ccc(OC)c(OC)c4)nc23)cc1	12.6µM*
O=C(O)CC1(CC(=O)N[C@H]2CO[C@H]3[C@@H]2OC[C@@H]3n2nnnc2Oc2cccc(N3CCOCC3)c2)CCCC1	2.8%
CSc1cccc(NC(=O)Cn2c(-c3ccc(F)cc3)nc(C)c(CCO)c2=O)c1	-17.2%
CC(C)NC(=O)CN1CN(c2ccccc2)C2(CCN(C(=O)NCc3ccccc3)CC2)C1=O	-0.9%
Cc1noc(C)c1C(=O)N(C)C1CCc2nnc(C)n2CC1 (stereo unspecified)	0.9%

hNpr1 antagonist: entries above that show a hit.
molecule	hNpr1 antagonist
O=C(c1cc(Cl)ccc1F)N1CCCC(n2cc(-c3nc(-c4ccccc4)no3)nn2)C1 (stereo unspecified)	15.8µM*
O=C(c1ccc(F)c(Cl)c1)N1CCC(n2cc(-c3nc(-c4ccccc4)no3)nn2)CC1	12.6µM*
COc1ccc(-c2nccn3cc(C(=O)NCc4ccc(OC)c(OC)c4)nc23)cc1	12.6µM*

The listing continues:
molecule	hNpr1 antagonist
Cc1cc(C)n(C)c(=O)c1C(=O)N1CCC2(CC1)CNC(C(=O)O)C2 (stereo unspecified)	12.9%
O=C(c1ccc(F)cc1)N1CCC2(CC1)N(c1ccccc1)C(=O)CS2(=O)=O	5.7%
COc1ccc(NC(=O)Cn2ccn3nc(-c4ccccc4)c(CO)c3c2=O)cc1	-1.3%
CC1=C[C@@H](CNC(=O)c2cccnc2)[C@H](C(C)C)C[C@H]1CC(=O)N1CCN(C)CC1	-4.0%[70.6 µM]
O=C(NCCc1ccccc1)N1CCCC(c2noc(COc3ccccc3)n2)C1 (stereo unspecified)	-7.5%
O=C(Cn1nc2n(c1=O)CCCC2)Nc1ccccc1	-3.6%
O=C(C1CCCN1c1nc2ncccc2o1)N1CCN(c2ncccn2)CC1 (stereo unspecified)	1.4%
CN1C(=O)C(CC(=O)N2CCN(Cc3cccc(Cl)c3)CC2)=C2CCCCC21 (stereo unspecified)	-0.5%
O=S(=O)(c1ccccc1)N1CCC(N(Cc2cccnc2)C2CCOCC2)CC1	-4.5%
O=C(COc1ccccc1)NC[C@H]1Cn2c(-c3ccc(Cl)cc3)cnc2CO1	-12.8%[70.6 µM]
Cc1cn2nnc(C(=O)NCc3ccc4c(c3)OCO4)c2c(=O)[nH]1	2.0%
O=C(CCc1nc2ccccc2[nH]1)N1CCN(C(=O)N2CC3CC(C2)[C@H]2CCCC(=O)N2C3)CC1 (stereo partly specified)	-0.3%
CCc1ccc(C(=O)N2CCC(Oc3ncccc3C(=O)N(C)C)C2)cc1 (stereo unspecified)	-9.3%
O=C(Cc1cccc(Cl)c1)N1CCC(c2nn(-c3ccc(F)cc3)c(=O)[nH]2)CC1	-22.5%
O=C([C@H]1C[C@H](Oc2cccnc2)CN1C(=O)NCc1ccccc1)N1CCOCC1	-0.9%
CCN(CC)C(=O)[C@@H]1CCC[C@@H](N(C)C)CN(C)C(=O)C1	3.1%[70.6 µM]
Cc1ncoc1C(=O)N1CCCN(C(=O)C2CC2)C(c2ccccc2)CC(=O)NCC1 (stereo unspecified)	-1.3%
O=c1cc(N2CCOCC2)oc2c(-c3ccccc3Oc3ccccc3)nccc12	-2.2%[70.6 µM]
O=C(NCc1cccnc1)[C@@H]1C[C@@H](O)CN1C1CCN(C(=O)c2ccccc2F)CC1	-1.9%
CCN1C(=O)COC[C@@H]1[C@H](O)c1ccc(NC(=O)c2cc(C)nn2C)cc1	-0.9%[70.6 µM]
C=CCNC(=O)C1CCCN(S(=O)(=O)c2ccccc2)CCC(=O)NCC1 (stereo unspecified)	-0.7%
CC(=O)N1CCC(CC(=O)N[C@@H]2CN(C)C[C@H]2CN(C)C)CC1	2.2%
CCOC(=O)c1nn(Cc2ccc(OC)cc2)c2c1CN(C(=O)c1cn3ccccc3n1)CC2	-2.2%
O=C(c1cc2c(s1)CCC(C(=O)N1CCN(C3CCCC3)CC1)C2)N1CCCCCC1 (stereo unspecified)	-2.0%
O=c1c(NS(=O)(=O)c2cccc(F)c2)ccc2n1C[C@H]1C[C@@H]2CN(S(=O)(=O)c2ccccc2)C1	0.6%
CCCc1noc(-c2cccn3c(CNC(=O)c4ccc(C(C)(C)C)cc4)nnc23)n1	-4.9%
CCOC(=O)C[C@@H]1C[C@@H](C(C)C)[C@H](CNS(=O)(=O)c2ccc(OC)cc2)C=C1C	-15.6%[70.6 µM]
CCC(=O)N(C1CCOCC1)C1CCN(S(=O)(=O)c2ccc(C(F)(F)F)cc2)CC1	0.6%
CN1C(=O)c2cccn2CC1C(=O)NC1CCCCC1 (stereo unspecified)	-11.4%
O=C(NCc1cccs1)c1ccc(CN2C(=O)NC3(CCOCC3)C2=O)cc1	14.0%

Carrying on.
| molecule | hNpr1 antagonist |
| --- | --- |
| CC(C)(C)C1CCC2(CC1)NC(=O)N(CC(=O)NCc1ccccc1F)C2=O (stereo unspecified) | 4.0% |
| Cc1noc(C)c1CNCC1(COc2cccnc2)C[C@@H](O)[C@@H](O)C1 (stereo partly specified) | -2.2%[70.6 µM] |
| O=C(c1cc2ccccc2[nH]1)N1CCCC(c2nc(CCOCC3CC3)no2)C1 (stereo unspecified) | ? |
| O=C(CC[C@H]1NC(=O)c2ccccc2NC1=O)Nc1nc(-c2cccnc2)cs1 | 0.5% |
| CC(=O)N1CCN(c2nc3c(s2)CC(C(=O)NC2CCCCC2)CC3)CC1 (stereo unspecified) | -1.9% |
| CCN1c2cc(C(=O)Nc3ccc(Br)cc3)ccc2C(=O)N2CCCCCC21 (stereo unspecified) | -11.6% |
| O=C1Nc2ccccc2NC12CCN(Cc1c(F)cccc1Cl)CC2 | -15.9% |
| COCCc1nncn1C1CCN(C(=O)c2cccc(OC(F)(F)F)c2)CC1 | -13.7% |
| CCS(=O)(=O)N1CCC(n2c(C)cnc2C2CC2)CC1 | -12.4% |
| CN(Cc1ccc(-n2cccn2)cc1)CC1CCN(CCc2ccc(F)cc2)CC1 | -7.0% |
| CN(C)[C@@H]1CN(C(=O)c2ccc(C#N)cc2)CC[C@]1(O)c1ccccc1 | -0.6% |
| O=C(CCc1nc(C2CCCN2C(=O)c2ccccc2)no1)Nc1ccc(F)cc1F (stereo unspecified) | -3.9% |

Random excerpt: three entries already listed, in no set order.
| molecule | hNpr1 antagonist |
| --- | --- |
| Cc1ccc(NC(=O)CCc2ccnc(N3CCCC3)c2)c(C)c1 | -6.8% |
| O=S(=O)(c1ccccc1)N1CCC(N(Cc2cccnc2)C2CCOCC2)CC1 | -4.5% |
| CS(=O)(=O)N(C1CCOCC1)C1CCN(C(=O)c2ccc(Cl)cc2)CC1 | 2.1% |

Other compounds
| molecule | hNpr1 antagonist |
| --- | --- |
| CCSCCNc1nc(COC)nc2c1cnn2C | 3.8% |
| CNC(=O)[C@@H]1C[C@@H](n2cc(CNC(=O)c3cccc(OC)c3)nn2)CN1 | 3.8% |
| COCCNC(=O)[C@@H](C)C1CC[C@@]2(C)Cc3sc(NC(=O)CN(C)C)nc3[C@@H](C)[C@@H]2[C@H]1O (stereo partly specified) | -9.3% |
| O=C(c1ccccc1Cl)N1CCc2nc(-c3ccccc3)nc(-c3ccc(Cl)cc3)c2C1 | -20.1% |
| COC[C@H]1NC(=O)CC[C@H]1C(=O)N1CCN(c2cccc(C)c2)CC1 | 0.3% |

Screens from PubChem BioAssay.
